TRPV1 potentiator: human TRPV1 potentiation. TRPV1-expressing cells, Fluo-8 calcium influx, capsaicin EC20 potentiation; host cell line not named in the record; control for the full effect not named in the record. 320,000 compounds, 0.02% hits. Q8NER1. potentiation, % at 8.33 µM; active means potentiation above 80%; inconclusive means 30% to 80%; inactive means below 30%; further: 0% is about no effect
Target sequence (Q8NER1 whole entry, looked up): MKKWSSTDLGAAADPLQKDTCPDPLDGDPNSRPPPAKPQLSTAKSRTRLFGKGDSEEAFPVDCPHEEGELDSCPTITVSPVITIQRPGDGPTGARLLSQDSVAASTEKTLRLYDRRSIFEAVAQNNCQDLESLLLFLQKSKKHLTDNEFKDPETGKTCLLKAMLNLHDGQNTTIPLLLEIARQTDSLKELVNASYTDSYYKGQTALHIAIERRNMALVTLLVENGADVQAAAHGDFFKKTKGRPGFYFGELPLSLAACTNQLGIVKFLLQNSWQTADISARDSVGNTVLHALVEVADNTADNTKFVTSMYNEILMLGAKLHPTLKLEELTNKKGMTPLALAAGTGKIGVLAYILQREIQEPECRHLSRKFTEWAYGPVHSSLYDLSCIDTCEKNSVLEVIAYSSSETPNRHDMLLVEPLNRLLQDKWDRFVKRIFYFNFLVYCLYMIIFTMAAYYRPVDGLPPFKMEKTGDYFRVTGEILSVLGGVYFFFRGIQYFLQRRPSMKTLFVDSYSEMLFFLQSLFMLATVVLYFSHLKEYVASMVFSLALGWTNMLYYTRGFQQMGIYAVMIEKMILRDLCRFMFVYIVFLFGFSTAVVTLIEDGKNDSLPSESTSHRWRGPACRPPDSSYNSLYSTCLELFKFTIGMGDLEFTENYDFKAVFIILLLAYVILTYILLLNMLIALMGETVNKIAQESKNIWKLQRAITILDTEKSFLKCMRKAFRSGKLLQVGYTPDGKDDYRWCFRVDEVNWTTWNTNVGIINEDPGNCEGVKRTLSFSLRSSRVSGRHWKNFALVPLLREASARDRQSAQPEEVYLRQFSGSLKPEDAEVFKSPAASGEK
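Fluo-8 calcium influx in TRPV1-expressing cells, kinetic read (ex 480/em 520 nm). Compound added and read 3 min for agonist activity, followed by capsaicin at EC20 final and 2 min further read for enhancement.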
Menin MLL FP FL: menin-MLL binding inhibition, fluorescein peptide; Fluorescence polarization, fluorescein-MLL peptide displacement from menin; FP activity change, % at 61.4 µM; 290,000 tested, under 10 active; inconclusive = falling polarisation curve, or a change in total fluorescence; inactive = total fluorescence flat and polarisation flat or rising; no compound was filed as active; the % refers to the polarisation; negative = inhibition;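 further: % of control where 0% means no effect; inhibitors lower the polarisation; unlabelled MLL peptide was the positive control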
gsp ag: gsp mutant agonism. gsp mutant cells, cAMP HTRF, 30 min; control for the full effect not named in the record. Potency, µM (titrated, usually from 76.9 µM), for inactives: at the highest dose activation (cAMP increase), actives largely listed as activators. 340,000 compounds, 0.13% hits; active = well fitted activation curve with a large enough effect; inconclusive = small, poorly fitted or top-dose-only effect, or another doubt; inactive = no such curve, though single readings can be large or run the other way; cell line not stated here;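 further: phosphodiesterase inhibitor Ro 20-1724 added with compounds to block cAMP breakdown; potency means the concentration at half of the fitted maximal effect; nearly all actives have a fitted effect of over 60% in size; about a fifth of the inactives were tested at one dose only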
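Cells in DMEM/10% FBS with G418 were pretreated with compounds in DMSO plus […] (300 uM stock) for 30 min at 37C. cAMP was measured by HTRF (cAMP-d2 plus anti-cAMP antibody-K) after 30 min at room temperature.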
Sfp PPTase inh: Sfp phosphopantetheinyl transferase inhibition; Biochemical Sfp PPTase activity, qHTS; Potency, µM, without a hit: max response, negative = inhibition, hits mostly inhibitors; Q9F4F7; 310,000 compounds, 3.5% hits; active means well fitted inhibition curve with a large enough effect; inconclusive means small, poorly fitted or top-dose-only effect, or another doubt; inactive means no such curve, though single readings can be large or run the other way;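 further: the enzyme is Sfp with the accession as filed and its product quenches rhodamine fluorescence; potency means the concentration at half of the fitted maximal effect; 0% = enzyme reaction without inhibitor and -100% = no enzyme wells; top concentration of the series not given in the record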
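With Hepes-Na pH 7.6 buffer containing 10 mM MgCl2, Sfp (15 nM) modified BHQ-2-YbbR (12.5 uM) using rhodamine-CoA (5 uM). Two reads 30 minutes apart at 525/598 nm yielded each well's rate.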
ClpP mod: qHTS Assay for Activators of ClpP; ATP-dependent Clp protease proteolytic subunit (Bacillus subtilis (strain 168)), P80244; purified B. subtilis ClpP, FRET peptide cleavage, 20 min; Potency, µM (top dose mostly 57.5 µM), inactives show at the highest dose activity change, negative = active; 340,000 compounds, 1.9% hits; AID 651965, 2013; active = well fitted falling curve with a large enough effect; inconclusive = small, poorly fitted or top-dose-only effect; inactive = no such curve, though single readings can be large or run the other way; further: potency means the concentration at half of the fitted maximal effect; the source files actives as falling curves though it sought activators and does not explain the sign; nearly all actives have a fitted effect of over 65% in size; many hits overshoot -100%
Target sequence (P80244 whole entry, looked up): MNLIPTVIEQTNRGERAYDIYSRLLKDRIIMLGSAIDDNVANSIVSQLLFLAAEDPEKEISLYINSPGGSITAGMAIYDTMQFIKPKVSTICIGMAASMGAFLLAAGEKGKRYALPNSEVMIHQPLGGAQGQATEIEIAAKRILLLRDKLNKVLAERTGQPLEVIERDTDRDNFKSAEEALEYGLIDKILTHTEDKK
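FRET quenching reversal measured ClpP activation: 10 microg/mL B. subtilis ClpP at pH 8 with the FRET-FV decapeptide, read at 430 nm after 320 nm excitation. The 20-min minus 0-min signal was scaled between DMSO/no-enzyme wells and ADEP (5.8 microM final).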
D2 potentiator: positive allosteric modulators of human D2 dopamine receptor; potentiation, % (no concentration beside the values); 360,000 compounds, 0.23% hits; P14416; AID 624464; DiscoveRx D2 beta-arrestin cells, luminescence, 90 min; 100% = 57 uM dopamine signal; active = potentiation of 50% or more; inconclusive = 30% to 50%; inactive = 30% or less;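 further: compound concentration not given in the record; tested on top of an EC20 dose of dopamine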
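PathHunter D2 cells, attached overnight at 37 deg C, received compound in DMSO plus dopamine at EC20 (50 nM final) for 90 min at 37 deg C. Beta-arrestin recruitment was read as luminescence after 1 h with detection reagent at ambient temperature.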
gsp antag: antagonists of gsp mutant (McCune-Albright syndrome); gsp-mutant cells, cAMP HTRF, 30 min; control for the full effect not named in the record; 340,000 compounds, 0.4% hits; Potency, µM (doses to about 76.9 µM), for the others: at the top dose activity change, negative = inhibition, actives largely listed as inhibitors; AID 624288; active = falling curve of any shape with a large fitted effect; inconclusive = falling curve, mostly with a smaller effect; inactive = flat or rising curve; cell line not stated here;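 further: intracellular cAMP measured with PDE inhibitor Ro 20-1724 present during compound exposure; potency means the concentration at half of the fitted maximal effect; on the % scale 0 is the no-effect control and ±100 the full control effect; nearly all actives have a fitted effect of over 65% in size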
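Cells in G418 medium, seeded 16-24 h, 37C; buffer exchange to DPBS + 1 mM CaCl2, 0.5 mM MgCl2, 0.05% BSA; cpds in DMSO + […] (300 uM stock), 30 min 37C; HTRF cAMP detection.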
Starred values were filed as active, the others as inactive; ? = inconclusive; nt = no result given; [ ] = another dose, or the depositor's remark. Hits appear at their usual frequency. About 5.1% of those tested had a hit in this group.

[1] COC(=O)/C(=C/Nc1ccccc1)[N+](=O)[O-]
[2] O=S(=O)(Nc1ccc(S(=O)(=O)Nc2nccs2)cc1)c1ccc(Br)cc1
[3] CCCCCCOC(=O)C[N+](C)(C)CCOC1CC2CCC1(C)C2(C)C (stereo not given)
[4] C#CCOCCOCCOCCNc1nc(N2CCN(C(=O)[C@H](CCCN=C(N)N)n3cc(C(N)[C@@H](C)CC)nn3)CC2)nc(N2CCN(C(=O)[C@H](CCCCN)n3cc([C@@H](N)[C@H](C)CC)nn3)CC2)n1 (stereo not given in full)
[5] CCOc1ccc(NC(=O)CN(C)C(=O)c2cc(-c3ccc(OC)cc3)nc3ccccc23)cc1OCC
[6] CCc1ccc(OC(=O)/C=C/c2ccco2)cc1

Assay by compound | 1 | 2 | 3 | 4 | 5 | 6
D2 potentiator | -1 | 2 | -2 | -12 | 16 | -4
gsp antag | 6% | 12% | 10% | -4% | -9% | 2%
Sfp PPTase inh | 4% | 10% | ? | nt | nt | -12%
ClpP mod | 0.3% | 1.4% | 3.1% | -3.3% | 32µM* | 0.5%
TRPV1 potentiator | -4 | 13 | ? | nt | 24 | -3
Menin MLL FP FL | 4.5 | nt | -3.8 | nt | nt | -0.7
gsp ag | -15% | -42%[inhibitor] | -4% | -15% | -28% | 5%

Laid out differently: 3 of the compounds above
cpd	canonical_smiles	D2 potentiator	gsp antag	Sfp PPTase inh	ClpP mod	TRPV1 potentiator	Menin MLL FP FL	gsp ag
5	CCOc1ccc(NC(=O)CN(C)C(=O)c2cc(-c3ccc(OC)cc3)nc3ccccc23)cc1OCC	16	-9%	nt	32µM*	24	nt	-28%
6	CCc1ccc(OC(=O)/C=C/c2ccco2)cc1	-4	2%	-12%	0.5%	-3	-0.7	5%
2	O=S(=O)(Nc1ccc(S(=O)(=O)Nc2nccs2)cc1)c1ccc(Br)cc1	2	12%	10%	1.4%	13	nt	-42%[inhibitor]

Structural class, the compounds so far containing nitrogen in an aromatic ring (three)
[2] O=S(=O)(Nc1ccc(S(=O)(=O)Nc2nccs2)cc1)c1ccc(Br)cc1
[4] C#CCOCCOCCOCCNc1nc(N2CCN(C(=O)[C@H](CCCN=C(N)N)n3cc(C(N)[C@@H](C)CC)nn3)CC2)nc(N2CCN(C(=O)[C@H](CCCCN)n3cc([C@@H](N)[C@H](C)CC)nn3)CC2)n1 (stereo not given in full)
[5] CCOc1ccc(NC(=O)CN(C)C(=O)c2cc(-c3ccc(OC)cc3)nc3ccccc23)cc1OCC

Assay by compound | 2 | 4 | 5
D2 potentiator | 2 | -12 | 16
gsp antag | 12% | -4% | -9%
Sfp PPTase inh | 10% | nt | nt
ClpP mod | 1.4% | -3.3% | 32µM*
TRPV1 potentiator | 13 | nt | 24
Menin MLL FP FL | nt | nt | nt
gsp ag | -42%[inhibitor] | -15% | -28%

Continuation.
[7] CCOC(=O)c1cc(-c2cc3ccccc3o2)nc2c1c(=O)[nH]c(=O)n2CCOC
[8] O=[N+]([O-])c1cc(S(=O)(=O)N2CCCC2)ccc1NCCc1ccccc1
[9] CCCNC(=O)Cn1cnc2sc(C(=O)NCCN(CC)CC)c(C)c2c1=O
[10] CN1CCOc2ccc(S(=O)(=O)NCCc3ccc(Cl)cc3)cc21
[11] O=C(COC(=O)c1ccncc1)Nc1ccc2c(c1)OCO2
[12] Nc1c(Cl)cc(Cl)cc1C(=O)OCC(=O)N1CCCC1

Assay by compound | 7 | 8 | 9 | 10 | 11 | 12
D2 potentiator | 2 | 0 | -9 | -26 | 1 | -9
gsp antag | 15%[15.4 µM] | 3% | -1% | -8% | -2% | 3%
Sfp PPTase inh | 1% | -2% | 15% | 9% | nt | 17%
ClpP mod | 7.1µM* | -17% | -1.1% | -5.2% | -4.9% | 22µM*
TRPV1 potentiator | -2 | -1 | nt | -1 | nt | -20
Menin MLL FP FL | -4.3 | 8.9 | 2.8 | -1.8 | nt | 0.2
gsp ag | 6% | 18% | ? | 13% | -2%[15.4 µM] | 1%

The list goes on (three carried over from the part before).
[10] CN1CCOc2ccc(S(=O)(=O)NCCc3ccc(Cl)cc3)cc21
[11] O=C(COC(=O)c1ccncc1)Nc1ccc2c(c1)OCO2
[12] Nc1c(Cl)cc(Cl)cc1C(=O)OCC(=O)N1CCCC1
[13] O=C(O)C1CCCCC1C(=O)Nc1ccc(Cl)cc1Cl (stereo not given)
[14] COC(=O)c1ccc(S(N)(=O)=O)o1
[15] COc1ccc(N(CC(=O)N/N=C/c2ccccc2F)S(=O)(=O)c2ccccc2)cc1
[16] CCOC(=O)NC1(NCc2ccccc2)Oc2ccccc2O1
[17] CC(Sc1nnc(Cc2cccs2)n1C1CC1)C(=O)NC1CCS(=O)(=O)C1 (stereo not given)
[18] CCCCn1c(N)c(N(CC(C)C)C(=O)C2CC(=O)N(c3ccc(C)cc3)C2)c(=O)[nH]c1=O (stereo not given)

Assay by compound | 10 | 11 | 12 | 13 | 14 | 15 | 16 | 17 | 18
D2 potentiator | -26 | 1 | -9 | -10 | 5 | -6 | 15 | -6 | -15
gsp antag | -8% | -2% | 3% | 4% | 9% | -20% | -1% | 9% | 5%
Sfp PPTase inh | 9% | nt | 17% | 19% | 7% | -6% | 50µM* | nt | nt
ClpP mod | -5.2% | -4.9% | 22µM* | 0.8% | -1.9% | 0.6% | -4.3% | -1.6% | nt
TRPV1 potentiator | -1 | nt | -20 | 2 | -2 | 11 | 1 | -3 | -2
Menin MLL FP FL | -1.8 | nt | 0.2 | 2.7 | -2.7 | -3.2 | 2.4 | nt | nt
gsp ag | 13% | -2%[15.4 µM] | 1% | -1% | 7% | -13% | -35%[inhibitor] | 11%[15.4 µM] | -10%[15.4 µM]

[19] Cc1nc2ccccc2n1C1CCN(C(=O)Nc2ccccc2)CC1
[20] COc1cccc(OC)c1OC(=O)/C=C/c1ccc(C)o1
[21] N#Cc1ccccc1OCC(=O)N1CCN(C(=O)c2ccco2)CC1
[22] COc1ccc(CC(=O)Nc2ccccc2C(=O)N2CCCC2)cc1
[23] Cn1nc(CC(=O)Nc2cccnc2N2CCOCC2)c2ccccc2c1=O
[24] CCN(CC)S(=O)(=O)c1ccc(N2CCCCC2)c(NC(=O)C2=COCCO2)c1

Assay by compound | 19 | 20 | 21 | 22 | 23 | 24
D2 potentiator | -10 | 2 | -4 | -4 | nt | -4
gsp antag | -14% | -14% | 8% | 1% | nt | -20%
Sfp PPTase inh | 9% | -11% | 14% | 18% | 18% | nt
ClpP mod | 0.8% | nt | -2.1% | 0.6% | nt | -13%
TRPV1 potentiator | -4 | 22 | 0 | -4 | -2 | -21
Menin MLL FP FL | -1.2 | 8.8 | 0.4 | 6.0 | 0.6 | nt
gsp ag | -8% | 30% | ? | -2% | nt | -1%

[25] COC(=O)/C(=C\C(=O)c1ccccc1)Nc1ccc(OC)cc1
[26] N/C(=N\NS(=O)(=O)c1ccccc1)c1ccccn1
[27] O=c1[nH]c2ccccc2[n+]([O-])c1-c1ccccc1
[28] CCOC(=O)CC1COCCN1Cc1cn(C)nc1-c1ccccc1F (stereo not given)
[29] NC(=O)C1CCN(c2nnnn2-c2ccccc2)CC1
[30] NC(=O)c1ccccc1OCC(=O)NS(=O)(=O)c1ccc(Cl)cc1

Assay by compound | 25 | 26 | 27 | 28 | 29 | 30
D2 potentiator | -11 | -1 | -21 | 4 | -7 | 4
gsp antag | -11% | 5% | nt | 2% | 14% | -1%
Sfp PPTase inh | 3% | nt | -8% | 14% | 12% | 24%
ClpP mod | nt | nt | nt | nt | 2.6% | -5.9%
TRPV1 potentiator | nt | nt | -5 | 6 | ? | 25
Menin MLL FP FL | 12 | nt | 1.1 | 2.4 | 1.0 | 1.9
gsp ag | -9%[15.4 µM] | -17%[15.4 µM] | 34%[15.4 µM] | 6% | -1% | 2%

Sfp PPTase inh, what is marked active above.
cpd	Molecule	D2 potentiator	Sfp PPTase inh	Menin MLL FP FL	gsp ag
16	CCOC(=O)NC1(NCc2ccccc2)Oc2ccccc2O1	15	50µM*	2.4	-35%[inhibitor]

The results go on:
[31] CCCCn1c(-c2csc(C(C)C)c2)n[nH]c1=S
[32] COc1ncnc2sc3c(c12)CCCC3
[33] COc1cc(C(=O)NCCOC(=O)c2cccc(N(C)C)c2)cc(OC)c1OC
[34] COCCN(C(=O)Cc1csc(-c2cccc(Cl)c2)n1)c1c(N)n(Cc2ccccc2)c(=O)[nH]c1=O
[35] CC(=O)Nc1ccc(CN2CCN(Cc3ccc(F)c(F)c3)C(CCO)C2)cc1 (stereo not given)
[36] COc1cc2c(cc1OC)CN(C(=O)NS(=O)(=O)c1ccc(C)cc1)CC2

Assay by compound | 31 | 32 | 33 | 34 | 35 | 36
D2 potentiator | -17 | -5 | 0 | -1 | -13 | -4
gsp antag | -4% | 12% | -2% | 0% | 0% | 2%
Sfp PPTase inh | -18% | -6% | 14% | nt | 6% | -8%
ClpP mod | -8.9% | -1.4% | nt | -22% | nt | -14%
TRPV1 potentiator | -6 | -8 | ? | nt | 6 | 5
Menin MLL FP FL | 2.6 | 6.2 | -2.2 | nt | -1.4 | -2.6
gsp ag | -7% | 33% | 26%[15.4 µM] | ? | -10%[15.4 µM] | -42%[inhibitor]
